Screens: PubChem BioAssay, several laboratories
VCAM-1 down imaging: suppression of endothelial VCAM-1 upregulation – imaging, high-content imaging, pooled HUVEC, TNFa stimulus (AID 456); HUVEC TNFa-induced VCAM-1 surface expression, immunofluorescence imaging; numbers were filed only for top-ranked candidate wells; inhibition, % at 5 µM; hits with a dose series show IC50 in µM; 10,000 compounds, 0.2% hits;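 active means top tenth filtered wells with inhibition above zero that passed visual or statistical confirmation; inactive means the rest, including hits rejected on review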;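 further: 0% = stimulated vehicle wells and 100% = unstimulated cells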
FPRL1 binder: binds the human formylpeptide receptor-like-1 FPRL1; P25090; FPRL1-expressing cells, fluorescent ligand binding inhibition, flow cytometry; inhibition, %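 (tested at 6.7 µM)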; 24,000 compounds, 0.3% hits; AID 441;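 further: 0% = buffer alone and 100% = receptor blocker peptide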
Target sequence (P25090 whole entry, looked up): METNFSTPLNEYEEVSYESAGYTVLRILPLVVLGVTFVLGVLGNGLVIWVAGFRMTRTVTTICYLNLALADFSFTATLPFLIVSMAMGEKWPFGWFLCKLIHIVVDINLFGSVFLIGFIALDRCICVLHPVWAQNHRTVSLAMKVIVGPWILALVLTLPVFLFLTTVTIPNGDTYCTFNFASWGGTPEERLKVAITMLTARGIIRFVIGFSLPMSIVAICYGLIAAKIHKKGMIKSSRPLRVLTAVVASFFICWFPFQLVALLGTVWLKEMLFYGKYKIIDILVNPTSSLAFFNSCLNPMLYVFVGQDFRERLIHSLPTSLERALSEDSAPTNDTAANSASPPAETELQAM
VCAM-1 down: suppression of endothelial VCAM-1 upregulation – cell-based, plate reader, pooled HUVEC, TNFa stimulus (AID 454) | HUVEC TNFa-induced VCAM-1 surface immunofluorescence, plate reader; numbers were filed only for top-ranked candidate wells | inhibition, % at 5 µM | 10,000 compounds, 0.2% hits;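 active means compound among top-ranked inhibitors of TNF-induced VCAM-1 adhesion protein staining, with the hit upheld by image or statistical review; inactive means the rest, including hits rejected on review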;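 further: 0% = TNFa with vehicle and 100% = cells without TNFa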
FPR binder: ligands of human FPR, also counter-screen for FPRL1 ligands; FPR-expressing cells, fluorescent ligand binding, flow cytometry; inhibition, %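 (tested at 6.7 µM)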; 24,000 compounds, 0.74% hits; AID 440;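 further: 0% = buffer wells and 100% = receptor blocker peptide wells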
Target sequence (P21462 whole entry, looked up): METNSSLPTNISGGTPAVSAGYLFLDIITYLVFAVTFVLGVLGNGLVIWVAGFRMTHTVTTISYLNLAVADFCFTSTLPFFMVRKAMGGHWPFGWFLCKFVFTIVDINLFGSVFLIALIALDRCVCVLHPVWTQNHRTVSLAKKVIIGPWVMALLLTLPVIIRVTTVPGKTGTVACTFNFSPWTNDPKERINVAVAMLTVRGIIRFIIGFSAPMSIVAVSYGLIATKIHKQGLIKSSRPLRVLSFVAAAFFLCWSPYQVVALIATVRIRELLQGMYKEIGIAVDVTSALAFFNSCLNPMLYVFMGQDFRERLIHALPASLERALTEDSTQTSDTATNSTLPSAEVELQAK
VCAM-1 augmentation: boosters of cytokine-driven VCAM-1 levels – imaging, high-content imaging, pooled HUVEC, TNFa stimulus (AID 457); Pooled HUVEC, TNFa-induced VCAM-1 immunofluorescence imaging; hits of this screen are not shown here; 10,000 compounds, 0.2% hits; calls only;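 active means a top-ranked rise in VCAM-1 staining upheld on image or statistical review; inactive means the rest, including candidates rejected on review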;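 further: compounds tested at 5 µM in the well; cells exposed to compound for 24 hours before fixing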
An asterisk follows results filed as active; i = inactive; · = no result given.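 How the source made its calls, unless noted: active means mean above 30%; inconclusive means self-fluorescent; inactive means the rest.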 A portion of the library; the hit share may differ from the screen's.

SMILES	VCAM-1 down imaging	FPRL1 binder	VCAM-1 down	FPR binder	VCAM-1 augmentation
Cc1ccc2nsnc2c1S(=O)(=O)N(Cc1cc2cccc(C)c2[nH]c1=O)CC1CCCO1 (stereo unspecified)	i	-8	i	1	i
O=C(Cc1ccc(F)cc1)N(c1ccc(F)cc1)C1C=CS(=O)(=O)C1 (stereo unspecified)	·	-3	·	1	·
N#Cc1c(N)nc2c(c1-c1cccc(O)c1)CCCCCC2	·	7	·	4	·
COc1ccc(Cl)cc1NC(=O)CSc1nncn1-c1cccnc1	i	12	i	18	i
O=C(O)c1cccc(NC(=O)C2C3C=CC(C3)C2C(=O)OCC(F)(F)C(F)F)c1 (stereo unspecified)	i	-3	i	-3	i
C#CCn1c(=NC(=O)CSCC(=O)N2CCOCC2)sc2ccccc21	·	-1	·	-9	·
CCS(=O)(=O)N1CCC(C(=O)NCc2cccs2)CC1	i	1	i	-2	i
CCN(CC)CCNC(=O)CCCCn1c(=S)[nH]c2c([nH]c3ccc(OC)cc32)c1=O	·	5	·	-4	·
CC1=CCC(C(C)(C)NC(=O)c2ccccc2)C/C1=N\O (stereo unspecified)	i	4	i	6	i
CCOC(=O)c1c(C)c(C(=O)NCCc2ccc(S(N)(=O)=O)cc2)c(C)n1CC	·	-5	·	-12	·
Cc1c(NS(=O)(=O)N2CCCC2)c(=O)n(-c2ccccc2)n1C	·	3	·	-1	·
Cc1ccc(Cn2ccc(NC(=O)c3cc(-c4ccc5c(c4)OCO5)on3)n2)cc1	·	5	·	3	·
Cc1cc(OCC(=O)N2CCOCC2)cc2oc(=O)c3ccccc3c12	i	7	i	-3	i
O=C1C2C3C=CC(C3)C2C(=O)N1c1ncn[nH]1 (stereo unspecified)	·	-2	·	-1	·
Cc1ccc(CCNC(=O)CN2C(=O)COc3ccccc32)cc1	·	0	·	-5	·

Molecules shown so far containing a halogen, in the order listed:
SMILES	VCAM-1 down imaging	FPRL1 binder	VCAM-1 down	FPR binder	VCAM-1 augmentation
O=C(Cc1ccc(F)cc1)N(c1ccc(F)cc1)C1C=CS(=O)(=O)C1 (stereo unspecified)	·	-3	·	1	·
COc1ccc(Cl)cc1NC(=O)CSc1nncn1-c1cccnc1	i	12	i	18	i
O=C(O)c1cccc(NC(=O)C2C3C=CC(C3)C2C(=O)OCC(F)(F)C(F)F)c1 (stereo unspecified)	i	-3	i	-3	i

Remaining list, next part
SMILES	VCAM-1 down imaging	FPRL1 binder	VCAM-1 down	FPR binder	VCAM-1 augmentation
CCCCNC(=O)Cn1cnc2sc(C(=O)OCC)c(C)c2c1=O	·	4	·	-4	·
CCc1noc(C)c1C(=O)NCCc1ccc(OC)c(OC)c1	i	4	i	10	i
CCOC(=O)c1ccc(NC(=O)c2ccc(NS(C)(=O)=O)cc2)cc1	i	1	i	-15	i
CCOC(=O)N1CCN(c2ncnc3c2[nH]c2ccc(OC)cc23)CC1	i	-5	i	-11	i
Cc1ccc(S(=O)(=O)C2(C(=O)N3CCCCCC3)CC2)cc1	i	-3	i	1	i
NS(=O)(=O)c1ccc(CCNC(=O)c2cccnc2)cc1	i	-2	i	-8	i
O=C(CN1CC(c2ccccc2)CC1=O)Nc1ccc2c(c1)OCO2 (stereo unspecified)	·	1	·	6	·
CCOC(=O)c1oc2c(CN3CCN(C)CC3)c(O)ccc2c(=O)c1-c1ccc(Br)cc1	·	-3	·	-6	·
COC(=O)C1=C(C(=O)c2ccccc2)C(c2ccc(O)c(OC)c2)n2nnnc2N1 (stereo unspecified)	·	3	·	4	·
Cc1cc(NC(=O)c2cc3ccccc3o2)cc(C)c1OCC(=O)N1CCOCC1	i	-2	i	-10	i
Cc1ccc(-c2cc(C(=O)Nc3cc(C)ccc3C)[nH]n2)c(O)c1	i	-9	i	6	i
CCCCNC(=O)c1sc(=S)n2c1[nH]c(=O)c1ccccc12	·	4	·	89*	·
O=S(=O)(NCCCCCNS(=O)(=O)c1ccccc1)c1ccccc1	i	3	i	0	i
CCN(C(=O)CSc1nc2nc(C)cc(C)n2n1)c1cccc(C)c1	·	-16	·	-9	·
Cc1ccccc1CS(=O)(=O)Cc1ccc(C(=O)NCc2ccccn2)o1	·	-6	·	-2	·
O=c1c2ccccc2nnn1CSc1nnc2sc3ccccc3n12	i	-4	i	-1	i
CCC(C(=O)Nc1ncccn1)(C(F)(F)F)C(F)(F)F	i	15	i	-2	i
CC(=O)N(C)C1(c2nnnn2CCOC(=O)Nc2ccc(Cl)cc2)CCCCC1	i	0	i	5	i
COc1ccccc1CN1C(=S)SC(C)(C)C1NO (stereo unspecified)	i	2	i	-12	i
C/C(=N\O)C(=O)NCc1ccncc1	·	4	·	-6	·
COc1ccc(OC)c2[nH]c(=O)c(CCNC(=O)c3ccc(S(=O)(=O)N(C)C)cc3)cc12	·	5	·	-5	·
Cc1ccc(N2CCN(C(=O)CNS(=O)(=O)c3ccc(Br)s3)CC2C)cc1 (stereo unspecified)	·	-2	·	-2	·
CCSc1nnc(NC(=O)CSc2nc3c(c(=O)n2-c2ccccc2)SCC3)s1	·	6	·	5	·
CC1CCCCN1C(=O)c1cc(-c2ccc(Cl)c(Cl)c2)on1 (stereo unspecified)	·	5	·	2	·
CN(c1ccccc1)S(=O)(=O)c1ccc(C(=O)Nc2nnc(-c3ccc(F)cc3)o2)cc1	·	2	·	5	·
Cc1ccc2nc(NC(=O)C3CCN(S(=O)(=O)c4cccc5nsnc45)CC3)sc2c1	i	-4	i	1	i
Cn1c(=O)c2c(nc(N3CCOCC3)n2CCCNC2=NCCC2)n(C)c1=O	·	-1	·	-5	·
COc1ccc(NC(C)=O)cc1NC(=O)CCn1c(=O)sc2ccccc21	·	0	·	-2	·
Cc1cc2c(N3CCCCC3C)ncnc2s1 (stereo unspecified)	·	-3	·	3	·
CSc1nnc2c(n1)OC(C)N(C(=O)c1ccccc1)c1ccccc1-2 (stereo unspecified)	·	-2	·	5	·
Cc1ccc(N=Cc2ccc(O)cc2O)cc1F	i	0	i	-1	i
COCCCNC(=O)CSC1=Nc2ccccc2C2=NC(Cc3c[nH]c4ccccc34)C(=O)N12 (stereo unspecified)	·	-2	·	-8	·
CCOc1ccccc1NC(=O)NC1CCN(CC(=O)Nc2ccc3c(c2)OCCO3)CC1	i	-1	i	0	i
COC(=O)C1(C)Nc2ccccc2C(=O)N1c1ccccc1C (stereo unspecified)	·	2	·	1	·
COc1ccccc1NC(=O)CS(=O)(=O)c1cccc2nsnc12	·	-4	·	2	·
Cn1c(C(=O)NCc2ccccn2)cc2c(=O)n3ccccc3nc21	·	-2	·	4	·
Cc1cccc(Nc2nc(N)nc(CN3CCC(C(N)=O)CC3)n2)c1C	i	-4	i	-1	i
COc1ccc(Nc2cc(C(=O)NCCCN3CCN(C)CC3)c3ccccc3n2)cc1	·	-8	·	-9	·
CCN(CC)CCNC(=O)C1c2cc(OC)c(OC)cc2C(=O)N2CCc3ccccc3C12 (stereo unspecified)	·	-1	·	-12	·
COc1ccc2cc3cc(C(=O)Nc4ccccc4N4CCN(C)CC4)oc3nc2c1	·	-2	·	-1	·
COc1cccc(C(c2nnnn2CCc2ccccc2)N2CCN(c3ccccc3)CC2)c1OC (stereo unspecified)	i	-5	i	2	i
O=C(NC1CC2CCC1C2)c1ccc(CN2CCOCC2)cc1 (stereo unspecified)	i	9	i	-8	i
COc1ccc2cc(C(=O)OC(C)C)sc(=O)c2c1OC	·	-24	·	-8	·
COc1ccc(C2(C(=O)N3CCCC3)CCOCC2)cc1OC	i	9	i	-6	i
NC(=O)c1ccccc1NC(=O)CN1CCOCC1	i	-1	i	-3	i

Reprinted from the part before: 2 compounds, followed by the next part.
SMILES	VCAM-1 down imaging	FPRL1 binder	VCAM-1 down	FPR binder	VCAM-1 augmentation
COc1ccc(C2(C(=O)N3CCCC3)CCOCC2)cc1OC	i	9	i	-6	i
NC(=O)c1ccccc1NC(=O)CN1CCOCC1	i	-1	i	-3	i
COC(=O)C1C(=O)c2c([nH]c(C(=O)OC3CCCC3C)c2C)CC1C (stereo unspecified)	·	0	·	0	·
COc1ccccc1CC(=O)Nc1ccc(OC)c(OC)c1	i	-6	i	2	i
COc1ccc(OC)c(NC2c3ccccc3C(=O)N2Cc2ccc3c(c2)OCO3)c1 (stereo unspecified)	·	-2	·	3	·
COc1cccc(C2CC(c3cccs3)Nc3ncnn32)c1 (stereo unspecified)	·	3	·	-4	·
COc1ccc(-c2noc(COc3ccc(C)c(C)c3)n2)cc1OC	i	-2	i	-2	i
Cc1c(=O)n(OCc2ccccn2)c2ccccc2[n+]1[O-]	i	-2	i	-2	i
NC(=O)CN1C(=O)C2C3C=CC(C3)C2C1=O (stereo unspecified)	·	7	·	-3	·
CN1CCN(CCCNC(=O)c2cc3c(-c4ccc(Cl)cc4)nn(C)c3s2)CC1	·	2	·	0	·
O=C(COc1ccc(Cl)cc1)NCc1nnc(SCC(=O)N2CCCCC2)o1	·	2	·	-1	·
O=C(C1CCCN(Cc2ccncc2)C1)N1CCc2ccccc2C1 (stereo unspecified)	·	-3	·	-2	·
O=C(O)CCCCCNC(=O)c1ccncc1	·	0	·	1	·
O=C(CN(Cc1ccccc1F)S(=O)(=O)c1ccc(Cl)cc1)NCCCO	·	-3	·	-11	·
CCc1cccc(NC(=O)CCS(=O)(=O)c2cccc3nonc23)c1	·	-11	·	3	·
NC(CC(=O)O)c1cccc(OCc2ccccc2)c1 (stereo unspecified)	·	-22	·	4	·
COc1cc(C(O)c2nc3ccccc3n2C)cc(OC)c1OC (stereo unspecified)	i	10	i	0	i

Next part, overlapping the part above by six compounds.
SMILES	VCAM-1 down imaging	FPRL1 binder	VCAM-1 down	FPR binder	VCAM-1 augmentation
O=C(C1CCCN(Cc2ccncc2)C1)N1CCc2ccccc2C1 (stereo unspecified)	·	-3	·	-2	·
O=C(O)CCCCCNC(=O)c1ccncc1	·	0	·	1	·
O=C(CN(Cc1ccccc1F)S(=O)(=O)c1ccc(Cl)cc1)NCCCO	·	-3	·	-11	·
CCc1cccc(NC(=O)CCS(=O)(=O)c2cccc3nonc23)c1	·	-11	·	3	·
NC(CC(=O)O)c1cccc(OCc2ccccc2)c1 (stereo unspecified)	·	-22	·	4	·
COc1cc(C(O)c2nc3ccccc3n2C)cc(OC)c1OC (stereo unspecified)	i	10	i	0	i
Cc1c(C(=O)NCc2ccccc2)oc2ccc(S(=O)(=O)N3CCC4(CC3)OCCO4)cc12	·	-10	·	0	·
CCOc1ccccc1C1CC(=O)NC2=C1C(=O)CCC2 (stereo unspecified)	·	2	·	12	·
COC(=O)CSc1nnc(CNC(=O)Cc2ccccc2)n1-c1ccccc1OC	·	-5	·	-3	·
CC1(C)Cc2c(c(=S)nc(-c3ccccc3)n2CCO)CO1	i	-6	i	-1	i
CCOc1cc2[nH]c(=S)n(CCCN3CCOCC3)c(=O)c2cc1OCC	·	-8	·	0	·
CCC(C)N(CCNC(=O)CC1Oc2ccccc2NC1=O)C1CCCCC1 (stereo unspecified)	·	-2	·	-8	·
Cc1ccc(F)cc1NC(=O)c1cccc2nccnc12	i	7	i	-3	i
Cc1cc(C)nc(NC(=O)c2cnc3sccn3c2=O)n1	i	1	i	-4	i
C=CCOc1nc(N(C)C)nc(N(C)C)n1	i	-4	i	-1	i
CCOc1ccc(-n2nc(C(=O)NCCOC)c3ccccc3c2=O)cc1	·	2	·	-7	·
COc1ccc(-c2cc3n(n2)CCc2nc4ccccc4n2-3)cc1	i	4	i	4	i
Cc1ccc(NC(=O)CSc2nnc(Cn3c(=O)sc4ccccc43)n2C)cc1	·	7	·	18	·
Cc1ccc(C)c(NC(=O)C2CC(O)CN2C(=O)OC(C)(C)C)c1 (stereo unspecified)	·	-3	·	2	·
CN1CCN(Cc2cc(COCc3ccccc3)c3cccnc3c2O)CC1	·	3	·	-2	·
O=C(C1CCN(S(=O)(=O)N2CCC3(CC2)OCCO3)CC1)N1CCOCC1	i	-1	i	-7	i
CCCC(=O)C1=C(N(C)c2ccccc2)CC(C)(C)C(C(=O)OC)C1=O (stereo unspecified)	i	-4	i	2	i
CC(=O)N1CCc2cc(S(=O)(=O)NC(CC(C)C)C(=O)Nc3cc(C)ccn3)ccc21 (stereo unspecified)	·	-5	·	-8	·
CCOC(=O)c1ccc(CS(=O)c2ccc(Cl)cc2)o1 (stereo unspecified)	·	1	·	-1	·
O=C(CCS(=O)(=O)c1ccc(Br)s1)N1CCc2ccccc21	·	2	·	2	·
O=C(c1cc2ccccc2c(=O)o1)N1CCCc2ccccc21	·	-6	·	-4	·
